NPR1 antag: human Npr1 receptor antagonism. 76,000 compounds, 1.6% hits. P16066. HEK293 hNpr1 GloSensor cGMP, ANP-stimulated luminescence. Potency, µM (top dose mostly 46.3 µM), for the others: at the top dose activity change, negative = inhibition, usual class: inhibitors. AID 1347048; active = well fitted inhibition curve with a large enough effect; inconclusive = small, poorly fitted or top-dose-only effect; inactive = no such curve, though single readings can be large or run the other way;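 also: nearly all actives have a fitted effect of over 60% in size; nearly all hits also lower the signal before the agonist is added; a reference antagonist and vehicle were the controls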
Target sequence (P16066 whole entry, looked up): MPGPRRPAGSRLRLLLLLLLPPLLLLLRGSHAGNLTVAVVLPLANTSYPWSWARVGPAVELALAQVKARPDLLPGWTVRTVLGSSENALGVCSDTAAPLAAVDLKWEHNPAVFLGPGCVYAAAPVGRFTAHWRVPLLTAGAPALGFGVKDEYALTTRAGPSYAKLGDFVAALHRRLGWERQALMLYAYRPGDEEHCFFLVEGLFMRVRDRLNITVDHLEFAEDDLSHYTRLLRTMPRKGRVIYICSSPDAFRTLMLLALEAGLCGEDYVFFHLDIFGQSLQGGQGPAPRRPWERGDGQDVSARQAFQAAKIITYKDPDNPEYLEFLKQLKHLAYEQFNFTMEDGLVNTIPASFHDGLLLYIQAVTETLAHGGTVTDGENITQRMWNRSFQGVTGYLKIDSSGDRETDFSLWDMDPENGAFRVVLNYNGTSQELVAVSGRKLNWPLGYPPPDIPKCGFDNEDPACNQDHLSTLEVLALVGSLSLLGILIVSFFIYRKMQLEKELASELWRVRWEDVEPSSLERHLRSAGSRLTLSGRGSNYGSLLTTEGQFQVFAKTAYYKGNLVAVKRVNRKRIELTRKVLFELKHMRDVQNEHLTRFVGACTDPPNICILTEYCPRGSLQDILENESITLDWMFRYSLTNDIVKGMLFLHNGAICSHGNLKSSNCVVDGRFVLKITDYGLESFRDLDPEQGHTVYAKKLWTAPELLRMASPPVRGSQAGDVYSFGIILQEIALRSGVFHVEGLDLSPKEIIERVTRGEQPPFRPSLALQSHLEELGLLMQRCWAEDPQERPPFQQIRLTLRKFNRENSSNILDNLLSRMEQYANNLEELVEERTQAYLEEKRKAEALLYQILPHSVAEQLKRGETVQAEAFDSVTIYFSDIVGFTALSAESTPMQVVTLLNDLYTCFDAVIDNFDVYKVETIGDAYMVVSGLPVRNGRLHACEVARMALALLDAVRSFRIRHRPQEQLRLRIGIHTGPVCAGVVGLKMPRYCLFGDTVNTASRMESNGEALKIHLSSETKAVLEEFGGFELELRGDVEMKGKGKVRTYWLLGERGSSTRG
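HEK293 cells stably expressing human Npr1 and cGMP GloSensor pGS-40F, loaded 2 h with 2% GloSensor reagent, given compound 30 min at room temperature. Luminescence read before and 20 min after 0.1 nM hNppA.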
* = called active by the depositor; ? = inconclusive; [ ] = dose if it differs, or a comment. % is scaled to controls: 0 for no effect and ±100 for the full control effect; potency is read from the fitted curve at half-maximal effect. Only part of the results is shown. The share of hits here may be higher or lower than overall.

compound | NPR1 antag
O=C(CN1CC2CC(C1)[C@H]1CCCC(=O)N1C2)NC1CCCCCC1 (stereo partly specified) | -2%
O=C(COc1ccccc1)N1CCC2(CC1)CC(N(C(=O)c1ccccc1)C1CC1)CCO2 (stereo unspecified) | -18%
CCC(CC)CN1CC[C@H](c2n[nH]c(C)n2)[C@H](NC(=O)C2CCOCC2)C1 | 9%
O=C(NC1CC1)[C@@H]1C[C@H](Oc2ccccc2)CN1C(=O)Cc1ccccc1 | 3%
COc1ccc(C(=O)N2CCc3ccc(C(=O)NCc4cccnc4)cc32)cc1 | 4%
CC1CCC2(CC1)NC(=O)N(CC(=O)N1CCOCC1)C2=O (stereo unspecified) | 9%
O=C1COc2ccc(OCc3cccnc3)nc2CN1CCOc1ccccc1 | ?
CCc1nc2c(c(-c3ccc(Cl)cc3)n1)CN(C(=O)Nc1ccc(Cl)cc1)CC2 | -12%
CC(=O)N[C@@H]1CN(S(=O)(=O)N2CCOCC2)C[C@H]1c1ccc(C)o1 | 2%
COc1ccc(C2Cn3nnc(C(=O)N4CCN(C(=O)c5ccccc5C)CC4)c3CO2)cc1 (stereo unspecified) | -25%
Cc1cc(=O)n(CC(=O)Nc2ccc(Cl)cc2)c(N2CCC(C)CC2)n1 | -19%
CCn1cc(-c2ccc(Cl)cc2)cc1C(=O)O | 1%
CNC(=O)[C@H]1C[C@H](Oc2cccnc2)CN1S(=O)(=O)c1ccccc1 | -17%
COC(=O)c1ccc(NC(=O)c2cnc(-c3ccc(C)cc3)nc2-c2ccncc2)cc1 | -21%
CCN1C(=O)CCN(C(=O)c2c(C)noc2C)CC12CCOCC2 | 5%
CN(C)c1cccc(C(=O)N2CCCC(N3CCN(c4ccc(F)cc4)CC3)C2)c1 (stereo unspecified) | 0%
CCN(CC)c1ncccc1CNC(=O)c1ccc(C)s1 | 0%
Cn1c(Cn2cccn2)nnc1C1CCCN(C(=O)c2ccoc2)C1 (stereo unspecified) | -2%
Cc1cnc(C2CCC2)n1CC1CCN(C(=O)C2(c3ccccc3)CC2)CC1 | 4%
CC(C)CNC(=O)N1CCC(c2noc(-c3ccccc3)n2)C1 (stereo unspecified) | -27%
O=C(O)c1ccccc1C(=O)N1C[C@@H]2C[C@H]1C(=O)N(CC1CC1)c1ccccc1O2 | -1%[70.6 µM]
COc1ccc(CCN2Cc3cc(NC(=O)c4cccc(F)c4)ccc3OC(C)C2=O)cc1 (stereo unspecified) | -14%
CNC(=O)[C@@H](c1ccc(OC)cc1)N1CCC[C@H]1C(=O)N(C)Cc1ccccc1 | 2%[70.6 µM]
COCCN1C(=O)[C@H]2CN(Cc3ccc(C(C)C)cc3)C[C@H]2C1=O | -19%
C[C@]1(O)CCN(C(=O)c2cn(C3CCC(N)CC3)nn2)C[C@@H]1O (stereo partly specified) | -2%
O=C(O)c1ccc([S+](=O)([O-])N2CC(COc3ccccc3)C3(CN(c4ccccc4)C3)C2)cc1 (stereo unspecified) | -14%
Cc1noc([C@@H]2CN(Cc3cccc(F)c3)C[C@H]2CO)n1 | 0%
C=CCOC(=O)C1=C(C)N=C2SC=C(CC(=O)NCC(C)C)N2C1c1ccccc1Cl (stereo unspecified) | ?
COc1ccc(-c2cc(N3CCCC(NC(=O)c4ccc(F)c(Cl)c4)C3)n[nH]2)cc1 (stereo unspecified) | -20%
O=C(Cc1ccc(F)cc1)Nc1cccc(-c2nnc3n2CCCC3)c1 | 4%
CCCN(CC1CCOC1)C(=O)Nc1cccc(F)c1C (stereo unspecified) | -4%
O=C(Cc1ccsc1)N1CCC(N2CC3CC(C2)[C@H]2CCCC(=O)N2C3)CC1 (stereo partly specified) | 1%
COCC(=O)N1CCc2nc(C)nc(-c3ccc(Cl)cc3)c2CC1 | 2%[70.6 µM]
CCn1c2c(c(=O)n1Cc1ccccc1)CCN(C(=O)c1cnccn1)C2 | 2%[70.6 µM]
CN1CCN(c2ccc(-c3cccc(N)c3)nn2)CC1 | ?
O=C(N[C@@H]1CCN(Cc2ccc(-c3ccn[nH]3)o2)C[C@H]1O)c1cnccn1 | 1%
CN1CCOc2c(C(=O)NCc3cnn(C)c3)cc(-c3ccccc3O)cc21 | -4%[70.6 µM]
Cc1cccc(-c2cccc(NC(=O)C3CCCN(C(=O)CC(F)(F)F)C3)c2)c1 (stereo unspecified) | 6%
COC(=O)c1ccc(N2C[C@H]3OC(=O)N(CCc4ccc(OC)cc4)[C@H]3C2)nc1 | 5%
O=C(Cc1ccccc1)NCCC1CCN(C(=O)Nc2cc(F)ccc2F)CC1 | -1%
Cc1cccc(-c2noc([C@@H]3C[C@@H](O)CN3Cc3ccc(Cl)cc3)n2)c1 | -16%[70.6 µM]
O=C(CCc1nnn2c1CN(C(=O)NCCc1ccccc1)CC2)N1CCOCC1 | 1%
c1ccc(-c2cc(CC3(NCc4cnc5ccccc5c4)COC3)no2)nc1 | -20%[70.6 µM]
COc1ccc(-n2nc(C3CCCN(C(=O)c4ccccc4C)C3)[nH]c2=O)cc1 (stereo unspecified) | 28%
CC(C)N1C(=O)CO[C@H]2CN(Cc3ncc[nH]3)C[C@H]21 | 1%[70.6 µM]
CC(C)NC(=O)c1ccccc1OCC1CCCN(Cc2nccs2)C1 (stereo unspecified) | -7%
O=C(Nc1ccc(Oc2ccccc2)cc1)O[C@@H]1CO[C@H]2[C@@H]1OC[C@@H]2n1nnnc1SC1CCCC1 | 10µM*
CCc1nc2c(c(-c3ccc(O)cc3)n1)CCN(Cc1ccccc1OC)CC2 | 3%
CSc1cccc(NC(=O)Cn2c(Nc3cc(C)cc(C)c3)nc(C)cc2=O)c1 | -21%
CC(c1ccc(F)cc1)N1Cc2cc(NC(=O)COc3ccccc3)ccc2OCC1=O (stereo unspecified) | ?

(continued)
compound | NPR1 antag
CN1CCCCCCN(C(=O)c2ccnn2C)[C@H]2CCC[C@H]2C1=O | 1%
Cc1ccc(C(=O)N2CCCN(c3cc(-c4ccccc4)[nH]n3)CC2)cc1 | -9%
COC(=O)c1ccc(NC(=O)N2CCCC(Cc3nncn3CC3CC3)C2)cc1 (stereo unspecified) | -10%
COCCNC(=O)[C@@H]1C[C@@H](O)CN1C1CCN(C(=O)c2cc(F)ccc2F)CC1 | 2%
CC[C@H]1CN(C(=O)Nc2cccc(C(F)(F)F)c2)CC[C@H]1CC(=O)NCc1ccc(F)cc1 | -8%
O=C(NCc1cccc(Cl)c1)c1cc2c(s1)CCN(C(=O)c1ccccc1)C2 | ?
Cc1ccc(CN(C(=O)c2ccco2)c2ccc(CC(=O)NCC(C)C)cc2)cc1 | 1%
CC(C)(C)c1ccc(-c2cc(C[C@H]3CNCC[C@H]3CC(=O)NC3CCCCC3)no2)cc1 | -12%
COc1ccc(S(=O)(=O)NCC2Cn3cccc3C(=O)N2C)cc1 (stereo unspecified) | 5%
CCOC(=O)c1ccc(CNC(=O)N2CCC3(CC2)CN(c2ccccc2)C3=O)cc1 | ?
O=C(c1ccc(C(F)(F)F)cc1)N1CCN2C(=O)N(C3CCOCC3)C[C@H]2C1 | -1%[70.6 µM]
CCN(CCCNC(=O)CCn1ccn2nc3c(c2c1=O)CCCC3)c1ccccc1 | -8%
COc1ccc(-c2ccc3c(c2)C(=O)N2CCN(C(=O)c4cccc(F)c4)C[C@@H]2C(=O)N3)cc1 | -7%
COc1cccc(CCNC(=O)c2c(C)noc2-c2ccc(OC(F)(F)F)cc2)c1 | -2%
CC(=O)Nc1ccc(-c2c(C(C)C)nn(-c3cccc(F)c3)c2OC(C)=O)cc1 | 2%
O=C(c1ccc(-c2ccn[nH]2)cc1)N1CCCC(CCc2c(F)cccc2F)C1 (stereo unspecified) | 1%
O=C(NCCc1cnc[nH]1)c1cc(-c2ccccc2F)cc2c1OCCN2Cc1cccnc1 | -15%
COc1ccc(OCC2(C)COc3ccc(C(=O)Nc4ccccc4)cc3N2)cc1 (stereo unspecified) | 25µM*
NS(=O)(=O)c1ccc(F)c(C(=O)NCc2noc(-c3ccco3)n2)c1 | -1%
O=C(Cc1ccc(-n2cnnn2)cc1)NC1CCOC2(CCOCC2)C1 (stereo unspecified) | 5%
CCOC(=O)[C@H]1C[C@@H]2NCCCCCCNC(=O)[C@@H]2C1 | 5%
Cc1ccc(C2Cn3nnc(-c4noc(-c5ccccc5F)n4)c3CO2)cc1 (stereo unspecified) | 9%
Cc1cc(C(=O)NCc2c[nH]c3ncccc23)ccc1Cl | 4%[70.6 µM]
COc1ccccc1Nc1ncc2c(n1)CN(C(=O)Cc1ccc3c(c1)OCO3)CCN2 | -15%[70.6 µM]
O=C(C1CCCN(C2CCN(c3nc4ccccc4o3)CC2)C1)N1CCSCC1 (stereo unspecified) | -2%

Pulled by structure from the entries so far:
compound | NPR1 antag
COCCNC(=O)[C@@H]1C[C@@H](O)CN1C1CCN(C(=O)c2cc(F)ccc2F)CC1 | 2%
COc1ccccc1Nc1ncc2c(n1)CN(C(=O)Cc1ccc3c(c1)OCO3)CCN2 | -15%[70.6 µM]
Cc1ccc(CN(C(=O)c2ccco2)c2ccc(CC(=O)NCC(C)C)cc2)cc1 | 1%
O=C(c1ccc(C(F)(F)F)cc1)N1CCN2C(=O)N(C3CCOCC3)C[C@H]2C1 | -1%[70.6 µM]
CCOC(=O)[C@H]1C[C@@H]2NCCCCCCNC(=O)[C@@H]2C1 | 5%
O=C(NCc1cccc(Cl)c1)c1cc2c(s1)CCN(C(=O)c1ccccc1)C2 | ?
CC[C@H]1CN(C(=O)Nc2cccc(C(F)(F)F)c2)CC[C@H]1CC(=O)NCc1ccc(F)cc1 | -8%

Continuation.
SMILES,NPR1 antag
Cc1nn(C)c(C)c1S(=O)(=O)NCCc1ncc(C)n1Cc1ccc(F)cc1,-1%
CC(C)NC(=O)N1CCCC1c1noc(CCC(=O)O)n1 (stereo unspecified),7%
CCOCCCNC(=O)[C@H]1CN(Cc2ccccc2)C[C@H]1C(=O)O,-2%
CN(C)[C@@H]1CN(C(=O)C2CCC2)CC[C@]1(O)c1ccccc1,2%
Cc1ccc2nc([C@H]3CCN(Cc4ccccn4)C3)[nH]c2c1,-6%[70.6 µM]
COc1ccc(-n2c(=O)c3c(n2Cc2ccccc2)CN(C(=O)c2ccnn2C)CC3)cc1,-2%
Cc1ccc(C(=O)N2CCCCCNC(=O)[C@@H]3CCCC[C@@H]32)s1,8%
COc1ccc(NC(=O)O[C@@H]2CO[C@H]3[C@@H]2OC[C@@H]3NC(=O)c2ccco2)cc1,-2%[70.6 µM]
O=C(c1ccsc1)N1CCN(c2nnc3ccc(C(F)(F)F)cn23)CC1,0%
CN(Cc1nc2ccc(F)cc2[nH]1)c1cc(C2CC(O)C2)ncn1 (stereo unspecified),7%
CN(C)C(=O)c1n[nH]c2c1CN(C(=O)c1cccc(Cl)c1)CC2,-8%
CC(C)C(=O)Nc1ccc(C2(C(=O)N3CCN(c4ccccc4)CC3)CCCCC2)cc1,-12%
CCc1noc([C@@H]2CC(F)(F)CN2C(=O)c2nccn2C)n1,-2%
CC(=O)N1CCCN(S(=O)(=O)c2ccccc2)CCC(=O)NCC1,-4%
CCc1nc2nccc(-c3ccc(Br)s3)n2n1,3%
CCn1ccc(C(=O)N2CCC(c3nnc(Cn4cncn4)n3C)CC2)n1,1%
O=C(Cc1ccccc1)N1CCCCC1c1nc(CCOCC2CCOCC2)no1 (stereo unspecified),-10%
Cc1ccc(-n2nc3n(c2=O)CCN(C(=O)Cc2cccc(Cl)c2)C3)cc1,4%
CC1Oc2ccc(NC(=O)Cc3ccccc3)cc2CN(Cc2ccc(F)cc2)C1=O (stereo unspecified),?
O=C(Cc1cccc(Cl)c1)N1CCCC(c2nn(-c3ccccc3)c(=O)[nH]2)C1 (stereo unspecified),2%

2 of these compounds in another layout:
NPR1 antag	molecule
-4%[70.6 µM]	CN1CCOc2c(C(=O)NCc3cnn(C)c3)cc(-c3ccccc3O)cc21
6%	Cc1cccc(-c2cccc(NC(=O)C3CCCN(C(=O)CC(F)(F)F)C3)c2)c1 (stereo unspecified)

NPR1 antag: what is marked active above
SMILES,NPR1 antag
O=C(Nc1ccc(Oc2ccccc2)cc1)O[C@@H]1CO[C@H]2[C@@H]1OC[C@@H]2n1nnnc1SC1CCCC1,10µM*
COc1ccc(OCC2(C)COc3ccc(C(=O)Nc4ccccc4)cc3N2)cc1 (stereo unspecified),25µM*

(list continues)
SMILES,NPR1 antag
O=C(c1cccc2[nH]ccc12)N1CCC2(CCCCO2)CC1,5%
O=C(NCc1ccccc1)N[C@H]1CO[C@H]2[C@@H]1OC[C@@H]2n1nnnc1Oc1cccc(N2CCOCC2)c1,7%
COCCNC(=O)[C@H]1O[C@H](CCN(CCOC)CCOC)CC[C@@H]1O,-2%[70.6 µM]
C[C@H]1[C@@H]2[C@@H](O)C([C@H](C)C(=O)N3CCCC3)CC[C@@]2(C)CC[C@@H]1NC(=O)Nc1cccc(F)c1 (stereo partly specified),-3%
CN1CCN(c2ncnc3sc4c(c23)CCN(Cc2ccco2)C4)CC1,0%
Cc1cnc(CCNC(=O)NCc2ccccc2)n1C1CCC1,-4%
O=C(c1ccc(Cn2cccn2)o1)N1CCC2(CC1)[C@H](O)C[C@@H]2O,0%
CC(C)c1nc2c(c(-c3ccc(Cl)cc3)n1)CN([S+](=O)([O-])c1ccccc1)CC2,14%
O=C(CNC(=O)c1cnccn1)NC1CCCc2c1[nH]c1ccc(Cl)cc21 (stereo unspecified),-2%
O=C1CC(c2ccccc2)N(C(=O)CNC(=O)c2ccc3ncccc3c2)CCCCCCN1 (stereo unspecified),0%
CC1CCN([C@@H]2[C@H](O)[C@H](CO)O[C@@H]2CNC(=O)c2cccs2)CC1,6%[70.6 µM]
CC(=O)N1CCC(NC2(Cc3cc(C(C)(C)O)on3)COC2)CC1,7%[70.6 µM]
CN(C)S(=O)(=O)N1CCC(N2C(=O)C3(CCCCC3)C2c2ccncc2)CC1 (stereo unspecified),8%
COC[C@H]1C[C@@H](NC(=O)Nc2ccccc2)[C@H](O)[C@@H]1O,0%[70.6 µM]
CNC(=O)[C@@H]1C[C@H](Oc2cccnc2)CN1C(=O)Cc1cccc(OC)c1,0%
CC(C(=O)N1CCOCCNC(=O)CC1)c1ccccc1 (stereo unspecified),1%
